FGF22 binding = FGF22 (human) thermal shift binding; Q9HCT0; recombinant FGF22 thermal shift, SYPRO orange fluorescence; percent of sucrose octasulfate shift, DMSO zero; calls only at 9.99 µM; 1.5% of 340,000 active; AID 651658;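 active means melting point raised past a set limit in the mean and every replicate; inconclusive means no clear call; three in four hits are not shown here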
Target sequence (Q9HCT0 whole entry, looked up): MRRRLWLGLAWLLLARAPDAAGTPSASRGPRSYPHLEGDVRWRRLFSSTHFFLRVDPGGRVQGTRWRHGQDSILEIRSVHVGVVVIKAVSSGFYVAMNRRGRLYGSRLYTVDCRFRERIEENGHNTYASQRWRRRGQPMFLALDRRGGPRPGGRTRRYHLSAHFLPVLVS
Beta cell apopt = blocks beta cell apoptosis; protection from apoptosis, % (concentration not given with the values); INS-1E cytokine-induced death, ATP luminescence, 48 h; percent of positive-control rescue, neutral wells zero; 0.8% of 300,000 active;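 active means all replicates at 75% or more, or half of them and the mean; inconclusive means half reach 75% but not the mean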;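 further: 0% = cytokine-treated negative control wells and 100% = positive control rescue; higher means more ATP so stronger rescue from cytokine killing; wells of about 40 µL received 100 nL stock; the first replicate is given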
Bfl-1 A1 inh = inhibitors of the anti-apoptotic protein A1, read as caspase activation; MEF A1-2A-BIM cells, Caspase-Glo 3/7 luminescence, 3 h; percent of clofoctol response, vehicle zero; caspase activation, % (no concentration beside the values); 0.066% of 330,000 active; AID 2462;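 active means over half of replicate activation scores above 10%, or exactly half above 10 with the replicate mean above 10; inconclusive means replicate mean below 10 yet half the replicates above 10; inactive means over half of replicates below 10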;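 further: wells of about 30 µL received 50 nL stock; many hits fall short of the cut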
UCH37 DUB inh = human UCH37 deubiquitinating enzyme inhibition | purified proteasome/UCH37, Ub-AMC cleavage fluorescence | 0.33% of 330,000 active | Q9Y5K5 | inhibition, % (concentration not given with the values);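 active means mean of two replicates above 20%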;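 further: 0% = compound-free wells with enzyme and 100% = wells lacking proteasome; stock transfer was 100 nL into about 20 µL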
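Test system – human UCH37 enzyme supplied as purified proteasome complex · Incubation – 30 min preincubation with enzyme, 25 min cleavage at room temperature · Detection – AMC fluorescence from Ub-AMC cleavage, excitation 355 nm, emission 460 nm · Benchmarks – no-proteasome wells (full inhibition) and compound-free wells (no inhibition)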
Ecoli growth = inhibitors of Escherichia coli growth; 0.21% of 330,000 active; AID 1053175; OD600 absorbance (concentration not given with the values); OD600, 23 h; stronger effect = lower value;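 active means OD600 absorbance below the run mean of sample wells minus 3.6 SD, in any replicate, cut at about 0.56 in these data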;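 further: stock transfer was 300 nL into about 60 µL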
rRNA inh HTS = selective bacterial rRNA inhibition in E. coli | 1.6% of 350,000 active | GFP signal change (wild-type ribosome), % (no concentration beside the values) | AID 720706 | E. coli WT GFP vs humanized-ribosome RFP mutants, fluorescence, 24 h; stronger effect = lower value; DMSO median 0, no signal -100;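 active means significant combined selectivity score with lowered wild-type GFP, culture density cut under 30%, mutant RFP and density less affected; inactive means any of these conditions unmet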; further: one replicate is shown; some compounds called inactive have numbers as strong as hits
AF4-AF9 inh = inhibitors of human MLL-AF4/AF9 interaction; P42568; AlphaScreen, biotin-AF4 peptide binding to FLAG-AF9; inhibition, % at 10 µM; 0.47% of 350,000 active;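 active means every replicate reaching a set inhibition limit, whatever the replicate mean, cut at about 25% in these data; inconclusive means mean inhibition reaches that limit but some replicates miss it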;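 further: 0% = plate neutral control median and 100% = total signal loss; the record names both 10 and 1 µM as test concentration; the first replicate is given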
Target sequence (P42568 whole entry, looked up): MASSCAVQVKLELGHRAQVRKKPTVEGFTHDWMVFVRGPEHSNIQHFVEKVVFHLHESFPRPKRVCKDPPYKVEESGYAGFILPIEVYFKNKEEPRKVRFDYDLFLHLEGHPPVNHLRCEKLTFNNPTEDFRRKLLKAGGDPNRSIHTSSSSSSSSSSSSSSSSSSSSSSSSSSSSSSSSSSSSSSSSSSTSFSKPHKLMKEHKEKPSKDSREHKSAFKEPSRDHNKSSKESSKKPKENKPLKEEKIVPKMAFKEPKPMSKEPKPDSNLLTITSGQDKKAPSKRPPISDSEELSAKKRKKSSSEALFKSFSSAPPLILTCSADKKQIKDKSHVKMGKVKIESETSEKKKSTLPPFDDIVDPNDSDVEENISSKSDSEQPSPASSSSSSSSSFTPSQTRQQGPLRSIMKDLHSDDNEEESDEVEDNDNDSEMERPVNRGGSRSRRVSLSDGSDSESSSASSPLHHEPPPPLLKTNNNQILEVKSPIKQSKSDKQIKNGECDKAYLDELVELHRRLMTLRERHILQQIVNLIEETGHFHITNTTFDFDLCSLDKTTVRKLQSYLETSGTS
T cruzi repl = T. cruzi replication inhibition. T. cruzi beta-gal in NIH3T3, luminescence, 90 h. 1.4% of 300,000 active. AID 1885. inhibition, % (concentration not given with the values);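 active means mean inhibition across valid replicates above about 55%, limit read from the data; inconclusive means mean below that limit but half or more replicates reach it; inactive means mean below it, under half of replicates reach it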;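 further: signal also drops with host cell toxicity which is not excluded here; 0% = plate median of DMSO wells and 100% = zero luminescence signal; higher percent means less beta-gal luminescence so fewer parasites; stock transfer was 50 nL into about 50 µL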
rRNA inh HTS OD600 = recorded beside rRNA inh HTS, whose call it bears; OD600 change, %; measured here: OD600 growth;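 optical density of the mix in the first replicate; 0 = DMSO median and -100 = no signal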
rRNA inh HTS RFP = second read-out of rRNA inh HTS, no call of its own (marks repeat the call); RFP signal change, %; measured here: RFP humanized mutant strains;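 first replicate; 0 = DMSO median and -100 = no signal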
Active calls of the source: *; i = inactive; ? = inconclusive; / = not tested or not shown.

SMILES	FGF22 binding	Beta cell apopt	Bfl-1 A1 inh	UCH37 DUB inh	Ecoli growth	rRNA inh HTS	rRNA inh HTS OD600	rRNA inh HTS RFP	AF4-AF9 inh	T cruzi repl
Cc1cc(C)n(C(=O)CNC(=O)Cc2ccccc2)n1	/	-3	0.4	3.9	0.66	/	/	/	/	-11
Cc1ccc(S(=O)(=O)NCC(C)NS(C)(=O)=O)cc1 (centres undefined)	/	2	0.2	0.4	0.69	/	/	/	/	-15
CCc1nnc(NS(=O)(=O)c2ccc(NC(=S)NC(=O)/C=C/c3ccccc3)cc2)s1	i	0	0.2	6.1	0.61	-37*	-4.1*	-8.7*	3.2	-1
COC(=O)c1cccc(-c2ccc(C(c3c(C)[nH][nH]c3=O)c3c(C)[nH][nH]c3=O)o2)c1	i	-5	-0.3	40*	0.72	3	3	1.0	0.3	7
O=C(CN1C(=O)c2ccccc2S1(=O)=O)N1CCOCC1	i	-1	-0.7	1.9	0.63	23	6	-0.9	3.4	-7
CC(C)C[C@@H](CO)N1CCN(CCCc2ccccc2)CCC1=O	i	1	-0.1	-0.4	/	8	4	2.6	-0.5	-14
Cc1ccc(/C=C/c2nc3ccccc3s2)s1	/	7	-16	-13	0.73	/	/	/	/	6
CC(=O)n1nc(-c2ccc(Cl)cc2)nc1NCc1ccco1	/	0	0.5	0.9	0.74	/	/	/	/	-23
Cc1cccc(Nc2nnc(SC/C(O)=C(\C#N)c3nc4ccccc4[nH]3)s2)c1C	/	-6	1.9	-7.9	0.7	/	/	/	/	5
CCCCCCOC(=O)C(C#N)c1nc2ccccc2nc1N1CCN(CC)CC1 (centres undefined)	/	5	0.9	-8.1	0.68	/	/	/	/	?
C[C@]12C(=O)N(c3ccc(Cl)cc3)C(=O)N1[C@@H]1c3ccccc3OC[C@@H]1[C@H]2c1ccccc1	i	/	-1.7	0.9	/	6	4	0.3	2.7	17
CC(OC(=O)CCNS(=O)(=O)c1ccccc1)C(=O)Nc1ccc(S(=O)(=O)N2CCCCC2)cc1 (centres undefined)	i	/	/	3.0	0.67	10	-14	4.7	2.2	/

Record cards (already shown):
Cc1ccc(S(=O)(=O)NCC(C)NS(C)(=O)=O)cc1 (centres undefined) across the screens: FGF22 binding = /; Beta cell apopt = 2; Bfl-1 A1 inh = 0.2; UCH37 DUB inh = 0.4; Ecoli growth = 0.69; rRNA inh HTS = /; rRNA inh HTS OD600 = /; rRNA inh HTS RFP = /; AF4-AF9 inh = /; T cruzi repl = -15
O=C(CN1C(=O)c2ccccc2S1(=O)=O)N1CCOCC1 across the screens: FGF22 binding = i; Beta cell apopt = -1; Bfl-1 A1 inh = -0.7; UCH37 DUB inh = 1.9; Ecoli growth = 0.63; rRNA inh HTS = 23; rRNA inh HTS OD600 = 6; rRNA inh HTS RFP = -0.9; AF4-AF9 inh = 3.4; T cruzi repl = -7
C[C@]12C(=O)N(c3ccc(Cl)cc3)C(=O)N1[C@@H]1c3ccccc3OC[C@@H]1[C@H]2c1ccccc1 across the screens: FGF22 binding = i; Beta cell apopt = /; Bfl-1 A1 inh = -1.7; UCH37 DUB inh = 0.9; Ecoli growth = /; rRNA inh HTS = 6; rRNA inh HTS OD600 = 4; rRNA inh HTS RFP = 0.3; AF4-AF9 inh = 2.7; T cruzi repl = 17

More records follow:
SMILES	FGF22 binding	Beta cell apopt	Bfl-1 A1 inh	UCH37 DUB inh	Ecoli growth	rRNA inh HTS	rRNA inh HTS OD600	rRNA inh HTS RFP	AF4-AF9 inh	T cruzi repl
COc1ccccc1-c1cc(-c2cc(Cl)ccc2O)n[nH]1	/	13	-2.0	-4.1	0.69	/	/	/	/	-8
COc1ccc(C(C)=O)cc1COC(=O)CCNS(=O)(=O)c1ccc(C(C)=O)cc1	i	-3	0.7	2.6	0.73	8	-2	2.8	0.3	-11
CCCN1C2CCCC1CC(NC(=O)c1ccccc1OC)C2 (centres undefined)	i	-7	0.3	2.1	0.65	1	9	2.3	-1.2	4
C(=Cc1c[nH]c2ccccc12)c1nccc2ccccc12	i	/	/	-11	0.68	22	-30	20	4.6	/
O=C(C1CC=CCC1)N1CCN(S(=O)(=O)c2ccc(F)cc2)CC1 (centres undefined)	i	/	/	1.8	0.59	4	1	-1.1	-1.2	/
CCOc1ccc(CCNC(=O)c2[nH]c(C)c(C(C)=O)c2C)cc1OCC	i	-8	0.3	4.4	0.67	10	14	-0.2	1.5	3
COc1ccccc1CNC(=O)C(=O)c1cn(CC(=O)N2CCOCC2)c2ccccc12	i	-5	0.5	9.5	0.71	8	2	4.6	1.5	-3
CCCCc1[nH]c(=O)c(C#N)c2c1CCCC2	/	5	-0.3	-10	0.73	/	/	/	/	-14
COc1ccc(NS(=O)(=O)c2cn(C)cn2)cc1Cl	i	-11	-1.3	4.5	0.69	0	-11	2.8	-1.5	-16
O=C(COC(=O)CCCSc1nc2ccccc2[nH]1)NC(=O)NC1CCCC1	/	-2	0.6	-0.7	0.65	/	/	/	/	-1
COc1ccc(CNC(=O)COC(=O)c2[nH]c(C)c(C(C)=O)c2C)cc1OC	i	-3	-1.7	0.2	0.68	-9	-4	2.9	1.4	/
CCc1ccc(N2CC(C(=O)OCC(=O)Nc3cc(C)on3)CC2=O)cc1 (centres undefined)	/	-3	0.4	0.1	0.68	/	/	/	/	-5

The list goes on; the last 2 above are carried over.
SMILES	FGF22 binding	Beta cell apopt	Bfl-1 A1 inh	UCH37 DUB inh	Ecoli growth	rRNA inh HTS	rRNA inh HTS OD600	rRNA inh HTS RFP	AF4-AF9 inh	T cruzi repl
COc1ccc(CNC(=O)COC(=O)c2[nH]c(C)c(C(C)=O)c2C)cc1OC	i	-3	-1.7	0.2	0.68	-9	-4	2.9	1.4	/
CCc1ccc(N2CC(C(=O)OCC(=O)Nc3cc(C)on3)CC2=O)cc1 (centres undefined)	/	-3	0.4	0.1	0.68	/	/	/	/	-5
COc1ccc(Cl)cc1NS(=O)(=O)c1c(C)[nH]c(C)c1C(=O)N1CCCCC1	i	-2	-1.8	0.0	0.71	-18	-14	0.2	5.1	23
CCCN(CC1CC1)S(=O)(=O)c1ccc(S(N)(=O)=O)cc1	i	-6	0.1	-1.3	0.72	-2	-2	-0.7	-0.8	-2
O=c1c2ccccc2nnn1CSc1ncnc2ccccc12	/	-24	-0.1	3.8	0.78	/	/	/	/	-4
CCc1nn(C(C)C(=O)NCCc2ccccc2)c(=O)c2cc3occc3n12 (centres undefined)	i	0	0.7	1.8	0.67	-1	2	1.5	-5.0	5
COc1ccc(-c2nnc3n2CCCCC3)cc1	i	0	0.7	2.6	0.64	4	15	-1.7	0.8	-9
CCNC(=O)O/N=C1\CCCCC1c1ccc([N+](=O)[O-])cc1[N+](=O)[O-] (centres undefined)	i	-9	0.0	/	/	10	12	2.2	3.0	33
CCC1=C(c2cc(OC)c(OC)c(OC)c2)C2(CCCC2)C(=O)O1	i	-8	0.7	3.5	0.8	-32	-36	-14	0.4	-2
CCCN(CCC)C(=O)Cn1c(=O)c2sccc2n2c(=S)sc(-c3ccccc3)c12	i	-10	-0.2	6.9	0.74	13	9	-0.6	-2.1	2
CC(=O)c1ccc(N2CCN(Cc3nc4ccccc4[nH]3)CC2)cc1	i	1	0.2	6.9	0.66	1	2	-1.4	3.4	8
CCCCN(C(=O)c1cccc(N2C(=O)c3ccccc3C2=O)c1)c1c(N)n(CCCC)c(=O)[nH]c1=O	i	/	/	5.4	0.7	8	17	-1.7	-0.6	/
CCCCCC(C)NC(=O)c1ccoc1C (centres undefined)	/	0	0.0	4.3	0.71	/	/	/	/	-5
O=C(Cn1cnc2c(nnn2-c2ccccc2)c1=O)N1CCC(Cc2ccccc2)CC1	i	3	-0.3	1.2	0.74	4	13	1.2	-2.5	15
COc1ccc(Cc2nc3ccc(C(=O)NCCn4cccn4)cc3o2)cc1	i	0	1.0	-1.6	0.68	8	4	-1.3	0.0	-7
FC(F)(F)c1cccc(OCCN2CCN(Cc3ccccc3)CC2)c1	/	-1	0.2	1.5	0.63	/	/	/	/	39
O=C1NC(=O)C2C3c4ccccc4C(c4ccccc43)C12 (centres undefined)	/	1	0.3	0.5	0.69	/	/	/	/	-7
Cc1c(Cl)cccc1NC(=O)N1CCCN(c2nc(-c3ccccc3)ns2)CC1	i	/	0.4	1.4	0.62	-30	-30	1.6	-1.7	8
CC(NC(=O)COC(=O)CN1C(=O)c2ccccc2C1=O)c1ccccc1 (centres undefined)	i	-3	0.3	1.5	0.72	3	7	-1.3	-0.9	/
CCC(C(=O)N1CCc2ccccc2C1)n1nc(C)n2c(cc3occc32)c1=O (centres undefined)	/	5	0.5	-0.4	0.69	/	/	/	/	4
O=C(N/N=C/c1ccc(O)cc1)NC12CC3CC(CC(C3)C1)C2	i	7	0.1	/	/	-53	-56	-10	8.5	4
Cc1cc(C)c2c(CC(=O)NN(C)C)coc2c1	/	-6	0.1	5.4	0.7	11	2	0.1	1.2	1
O=C1CC(C(=O)N(c2ccc(F)cc2)C(C(=O)NC2CCCC2)c2ccccn2)CS1 (centres undefined)	i	3	-0.8	5.7	0.75	5	3	3.2	1.2	-3
CCOC(=O)c1c(NC(=O)CSc2ccccc2C(=O)O)sc(C)c1C	i	-1	0.3	3.2	0.7	-28	-29	9.8	-2.4	6
NC(=O)[C@@H]1CCCNc2c(I)cc([N+](=O)[O-])cc2C(=O)N[C@@H](CO)C(=O)N[C@@H](Cc2ccc(O)cc2)C(=O)N1	i	/	1.1	0.4	/	9	-2	-2.0	-30	-12
Cc1cc(C(c2cc(C)c(N)c(C)c2)c2ccco2)cc(C)c1N	i	-3	-0.1	4.0	0.65	/	/	/	10.0	10
CCC(=O)Nc1cccc(NC(=O)COc2ccc(OC)cc2)c1	/	-1	0.1	1.2	0.6	/	/	/	/	-9
CCC(NS(=O)(=O)c1cnn(CC)c1)c1ccccc1 (centres undefined)	i	-7	1.9	2.5	0.68	13	10	-2.2	-8.7	7

The list is partial; rates above refer to the full screens.
